Screening results from PubChem.
YopH inh – blocks Yersinia enterocolitica YopH tyrosine phosphatase; fluorescence Ex485/Em525; inhibition, %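 (about 10 µM by stock and volumes)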; 140,000 tested, 0.16% active; AID 898;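 active means inhibition of 50% or more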;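 further: controls were vehicle for no effect and minimum signal wells for full effect; inactives centre near -20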
Mtb betalactam – beta-lactam sensitization of Mtb H37Rv. 330,000 tested, 0.27% active. inhibition, % at 25 µM. M. tuberculosis H37Rv growth with meropenem, percent inhibition; hits of this screen are not shown here;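 active means about 74% or more and at least 40 points above the plate without the antibiotic, then above 30% in a dose series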;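 further: growth measured after seven days incubation then overnight dye step; 0% = bacteria only wells and 100% = bacteria with antibiotic; twin plates without the antibiotic show which effects depend on it; some results filed as inactive read as strong as hits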
Mtb H37Rv – M. tuberculosis H37Rv growth inhibitors, H37Rv strain (AID 1626) | inhibition, % at 10 µM; hits with a dose series show IC50 in µM | M. tuberculosis H37Rv growth inhibition; higher % means a stronger effect | 220,000 tested, 0.95% active;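 active means confirmed in a dose series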;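 further: bacteria incubated seven days before Alamar blue readout; 0% = bacteria only wells and 100% = bacteria with antibiotic wells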
RecA splice inh – inhibitors of M. tuberculosis RecA intein splicing | inhibition, %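 (about 9 µM by stock and volumes)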 | P9WHJ3 | cell-free RecA intein splicing, fluorescence | 290,000 tested, 0.75% active; in the data active means inhibition above about 30%;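 further: 0% = vehicle wells and 100% = reference inhibitor control wells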
Target sequence (P9WHJ3 whole entry, looked up, canonical isoform): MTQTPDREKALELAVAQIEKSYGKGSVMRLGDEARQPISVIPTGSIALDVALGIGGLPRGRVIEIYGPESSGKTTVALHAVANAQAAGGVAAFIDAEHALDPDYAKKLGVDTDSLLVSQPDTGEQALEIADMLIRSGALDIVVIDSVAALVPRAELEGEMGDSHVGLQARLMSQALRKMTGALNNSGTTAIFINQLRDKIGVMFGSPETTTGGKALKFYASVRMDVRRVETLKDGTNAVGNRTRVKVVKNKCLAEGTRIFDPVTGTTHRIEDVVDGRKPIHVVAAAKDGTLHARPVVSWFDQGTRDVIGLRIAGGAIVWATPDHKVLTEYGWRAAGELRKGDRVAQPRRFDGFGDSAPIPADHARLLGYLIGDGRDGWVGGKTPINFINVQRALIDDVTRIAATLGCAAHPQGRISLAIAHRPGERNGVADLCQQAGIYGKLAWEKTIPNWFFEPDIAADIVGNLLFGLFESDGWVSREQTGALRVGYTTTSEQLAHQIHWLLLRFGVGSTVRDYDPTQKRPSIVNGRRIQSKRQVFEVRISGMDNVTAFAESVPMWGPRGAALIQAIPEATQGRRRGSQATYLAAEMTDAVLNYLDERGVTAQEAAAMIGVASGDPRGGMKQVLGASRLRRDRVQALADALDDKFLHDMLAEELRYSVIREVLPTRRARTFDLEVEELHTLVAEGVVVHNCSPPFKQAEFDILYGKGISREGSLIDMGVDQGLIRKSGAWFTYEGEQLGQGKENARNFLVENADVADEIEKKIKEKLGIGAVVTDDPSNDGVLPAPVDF
Arbovirus anti – arbovirus infection inhibition; arbovirus infection cell-based antiviral screen; inhibition, % at 10 µM; 200,000 tested, 0.37% active;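 active means inhibition from about 30%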;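 further: bluetongue infection of BSR cells; cell survival read as ATP light after 72 h; 0% = infected wells without compound and 100% = uninfected wells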
Arbovirus anti repeat – second read-out of Arbovirus anti, no call of its own (marks repeat the call); inhibition, %; measured here: 10K subset replicate screen; many hits read low in the repeat;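 first of two repeat runs on a subset; 0% = infected and 100% = uninfected wells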
* = called active by the depositor; . = no result given.

SMILES	YopH inh	Mtb betalactam	Mtb H37Rv	RecA splice inh	Arbovirus anti	others
Cc1onc(C(=O)N2CCOCC2)c1[N+](=O)[O-]	.	-2	-5%	-4.1	8
COc1ccc(N2CCN(C(=O)CNC(=O)Cc3ccccc3)CC2)cc1	.	6	.	-0.7	.
CC1CCN(C(=O)COc2coc(CN3CCc4ccccc43)cc2=O)CC1	.	-8	.	-1.5	.
CCN(CC)S(=O)(=O)c1ccc(NC(=O)CO/N=C(\N)c2ccccc2)cc1	.	-1	.	-0.8	.
Cc1nc2ccccc2c(=O)n1/N=C/c1ccccc1Cl	.	-1	.	2.8	.
O=C(O)c1cncc(Br)c1	.	3	-13%	0.3	.
C=CCN1C(=O)CSC1=Nc1cccc(O)c1	-9	-20	14%	-1.1	4
CCCNC(=O)c1nnsc1S(=O)c1ccc(Cl)cc1 (centres undefined)	.	.	8.7µM*	55*	-37
CCCC1NC(=S)N(C2CCCCC2)C1=O (centres undefined)	-28	-6	-2%	0.8	4
COc1ccccc1Oc1ccc(S(=O)(=O)N2CCOCC2)cc1S(=O)(=O)N1CCOCC1	-28	-14	-6%	2.0	-2	Arbovirus anti repeat=-4
CC(=O)c1ccc(N2CCN(S(=O)(=O)c3ccc4c5c3CC(=O)N5CC(C)S4)CC2)cc1 (centres undefined)	.	-3	.	11	.
COC(=O)/C(=C/c1c[nH]c2ccccc12)NC(C)=O	-18	-1	-9%	-1.1	8
CN(C1(C)CCS(=O)(=O)C1)S(=O)(=O)c1cccc([N+](=O)[O-])c1 (centres undefined)	.	-5	.	-0.9	.
Cc1ccc(O)c(NC(=S)NC(=O)C(C)C)c1	.	42	-1%	-2.6	.
COc1ccc(NS(=O)(=O)c2ccc(NC(=O)C3CCCO3)cc2)cc1 (centres undefined)	-8	-5	9%	-1.2	19
Cc1ccc(S(=O)(=O)N2CCCC2C(=O)OCc2ccccc2)cc1 (centres undefined)	-31	-4	0%	-2.8	-4
CN(C(=O)c1ccc2c(c1)CCN2S(C)(=O)=O)c1ccccc1	.	0	9%	-1.8	8
CC(=O)Nc1ccc(S(=O)(=O)c2ccc(C)cc2)cc1	.	-12	3%	0.0	8
O=C(NCc1cccnc1)/C(=C/c1ccco1)NC(=O)c1ccccc1	-39	-7	-14%	-2.4	2
Cc1nc(NC(=O)c2ccc3c(c2)OCCO3)ccc1Br	.	0	.	3.4	.
c1cncc(CNCCc2ccc3c(c2)OCO3)c1	.	3	.	-0.9	.
Cc1ccccc1C(=O)Nc1ccc(-c2nc3ccc(C(=O)c4ccccc4)cc3[nH]2)cc1	-56	99	73%	0.2	-30
CC(=O)N1CCc2c(sc(NC(=O)C3COc4ccccc4O3)c2C(N)=O)C1 (centres undefined)	.	-13	.	3.7	.
CCNC(=O)c1ccccc1NC(=O)C1CC(=O)N(C(C)C)C1 (centres undefined)	.	-2	.	-3.6	.
O=C(O)c1ccccc1N(Cc1ccccc1)C(=O)COc1ccccc1	.	-6	-9%	-1.2	.
S=c1[nH]nc(-c2ccccn2)n1/N=C/c1ccc(Br)s1	-10	-3	0%	-3.2	-6
C=CCOc1c(Cl)cc(CNc2ccc3[nH]c(=O)[nH]c3c2)cc1OC	-23	8	4%	-2.0	2
Cc1nc2sc(C(c3ccc(C(C)C)cc3)N3CCN(CCO)CC3)c(O)n2n1 (centres undefined)	-14	2	-3%	1.9	2	Arbovirus anti repeat=3
C=CCc1ccc(OCCCCN2CCC(C)CC2)c(OC)c1	-5	6	-1%	0.2	-18
C=C1CCN([C@H](C(=O)NCc2cc(OC)c(OC)c(OC)c2)C(C)C)S(=O)(=O)c2ccccc21	.	-6	-5%	0.6	.

Among those listed so far, these have a COOH group.
SMILES	YopH inh	Mtb betalactam	Mtb H37Rv	RecA splice inh	Arbovirus anti	others
O=C(O)c1cncc(Br)c1	.	3	-13%	0.3	.
O=C(O)c1ccccc1N(Cc1ccccc1)C(=O)COc1ccccc1	.	-6	-9%	-1.2	.

(listing goes on)
SMILES	YopH inh	Mtb betalactam	Mtb H37Rv	RecA splice inh	Arbovirus anti	others
CN(c1ccccc1)S(=O)(=O)c1ccc(Cl)c(C(=O)OCC(=O)NCc2ccco2)c1	.	-5	-7%	5.6	.
C=CCn1cnc2c(nnn2-c2ccc(C)c(Cl)c2)c1=O	.	-5	3%	1.4	-4
COc1ccc(/C=C/C(=O)NC(=S)NNC(=O)c2cccs2)cc1	.	15	0%	0.5	-15
O=C(COC(=O)CCc1nc2ccccc2s1)NCc1ccco1	.	-4	17%	-4.9	17
Cc1cc([N+](=O)[O-])ccc1NC(=O)c1cncc(Br)c1	-26	-2	4%	-0.9	3
Cc1cc(C)c2[nH]c(O)c(N=Nc3ccc(C(=O)O)cc3)c2c1	.	12	.	3.6	.
O=C(Cn1cccc1C(=O)c1ccccc1)NCc1ccccc1Cl	.	3	.	-0.4	.
CCOc1ccc(NC(=O)C[n+]2ccccc2)cc1	-26	-9	1%	-2.9	3
COc1cccc(C2=CC(c3cccc(OC)c3OC(F)F)n3nnnc3N2)c1 (centres undefined)	4	3	1%	-5.7	4
COc1ccc(OC)c(/C=N/NC(=O)Cc2nc3ccccc3[nH]2)c1	9	-2	4%	4.5	-2
COC/C=C/C1=CC2=CC(=O)C(C)(OC(=O)c3cnc4ccccc4n3)C(=O)C2=CN1Cc1ccc(OC)cc1 (centres undefined)	.	-3	5%	4.8	.
O=C(CN1C(=O)NC2(CCCCCC2)C1=O)N1CCN(S(=O)(=O)c2ccc(Cl)cc2)CC1	-17	-4	-9%	-3.4	-1
Cc1ccc(-n2nc(CN3CCOCC3)c(-c3ccccc3)c2N)c(C)c1	-21	-4	2%	0.6	1
COc1ccc2c(c1)CCCN2C(N)=Nc1ccc(Cl)cc1	.	-5	-4%	1.4	.
COc1ccc(NC(=O)Nc2cc(NC(=O)Nc3ccc(OC)cc3)c(C)nc2C)cc1	-6	-6	-5%	1.9	0

15 entries from above, arranged by count of non-hydrogen atoms, falling.
SMILES	YopH inh	Mtb betalactam	Mtb H37Rv	RecA splice inh	Arbovirus anti	others
COC/C=C/C1=CC2=CC(=O)C(C)(OC(=O)c3cnc4ccccc4n3)C(=O)C2=CN1Cc1ccc(OC)cc1 (centres undefined)	.	-3	5%	4.8	.
C=C1CCN([C@H](C(=O)NCc2cc(OC)c(OC)c(OC)c2)C(C)C)S(=O)(=O)c2ccccc21	.	-6	-5%	0.6	.
Cc1ccccc1C(=O)Nc1ccc(-c2nc3ccc(C(=O)c4ccccc4)cc3[nH]2)cc1	-56	99	73%	0.2	-30
O=C(CN1C(=O)NC2(CCCCCC2)C1=O)N1CCN(S(=O)(=O)c2ccc(Cl)cc2)CC1	-17	-4	-9%	-3.4	-1
CN(c1ccccc1)S(=O)(=O)c1ccc(Cl)c(C(=O)OCC(=O)NCc2ccco2)c1	.	-5	-7%	5.6	.
Cc1nc2sc(C(c3ccc(C(C)C)cc3)N3CCN(CCO)CC3)c(O)n2n1 (centres undefined)	-14	2	-3%	1.9	2	Arbovirus anti repeat=3
CC(=O)N1CCc2c(sc(NC(=O)C3COc4ccccc4O3)c2C(N)=O)C1 (centres undefined)	.	-13	.	3.7	.
O=C(O)c1ccccc1N(Cc1ccccc1)C(=O)COc1ccccc1	.	-6	-9%	-1.2	.
C=CCOc1c(Cl)cc(CNc2ccc3[nH]c(=O)[nH]c3c2)cc1OC	-23	8	4%	-2.0	2
COc1ccc(/C=C/C(=O)NC(=S)NNC(=O)c2cccs2)cc1	.	15	0%	0.5	-15
Cc1cc(C)c2[nH]c(O)c(N=Nc3ccc(C(=O)O)cc3)c2c1	.	12	.	3.6	.
COc1ccc2c(c1)CCCN2C(N)=Nc1ccc(Cl)cc1	.	-5	-4%	1.4	.
C=CCn1cnc2c(nnn2-c2ccc(C)c(Cl)c2)c1=O	.	-5	3%	1.4	-4
S=c1[nH]nc(-c2ccccn2)n1/N=C/c1ccc(Br)s1	-10	-3	0%	-3.2	-6
CCOc1ccc(NC(=O)C[n+]2ccccc2)cc1	-26	-9	1%	-2.9	3

Remaining list, next part.
SMILES	YopH inh	Mtb betalactam	Mtb H37Rv	RecA splice inh	Arbovirus anti	others
O=C1SC(c2ccccc2)=C/C1=C\N1CCCCC1	-9	2	3%	19	-1
Nn1c(SCC(=O)NC2CCCCC2)nnc1C1CC1	-23	1	-9%	.	2
COc1ccc(CNC(=S)N2CCN(Cc3ccccc3)CC2)cc1	.	-5	2%	4.3	.
COc1ccccc1NC(=O)CNC(=O)Cn1c(C)cc2ccccc2c1=O	.	4	.	0.0	.
O=C(COc1ccc(F)c(Cl)c1)N1CCCCCCC1	.	-3	.	7.9	.
COc1ccccc1C(O)P(=O)(OC(C)C)c1ccc(N(C)C)cc1 (centres undefined)	9	-1	-9%	-0.4	2
CSc1nnc(-c2ccc(S(=O)(=O)N3CCOCC3)cc2)n1C	.	-5	.	3.1	.
COc1ccc(OC)c(NC(=O)Cn2cnc3c(cnn3-c3ccccc3)c2=O)c1	-18	-8	-3%	2.6	-7	Arbovirus anti repeat=3
CCOC(=O)c1cc(NC(=O)CC(C)(C)CC(=O)O)ccc1N1CCCCC1	.	-9	7%	-20	.
N=P(N1CCOCC1)(N1CCOCC1)C12CC3CC(CC(C3)C1)C2	-35	-2	-4%	-0.9	-3
Cc1cc(Br)ccc1SCC(=O)OCC(=O)NC1CC1	.	6	-3%	0.1	7
CCOC(=O)C(CCC(=O)O)(CCC(C)C)c1csc(N)n1 (centres undefined)	-22	-4	-8%	-1.5	8
OC(CN1CCN(Cc2ccccc2)CC1)c1ccc(Br)cc1 (centres undefined)	.	-3	.	1.6	.
S=C(Nc1ccc(Cl)cc1)NN1CCOCC1	-21	-6	-3%	-1.0	1
C=CCOC(=O)CCCC(=O)NC1CCCCC1	-32	-1	-7%	-4.7	2	Arbovirus anti repeat=-1
Cc1cc(C)cc(N(CCC(=O)O)S(=O)(=O)c2ccc3ccccc3c2)c1	-38	-3	-14%	2.4	-12
Cc1ccc(S(=O)(=O)N2CC(O)CC2C(=O)Nc2ccc3c(c2)CCC3)cc1 (centres undefined)	4	-5	-7%	-1.3	16
O=C(O)c1nn(-c2ccccc2)c(-c2ccccc2)c1C(=O)c1ccccc1	-17	4	-7%	0.0	1
CCOc1ccc(C2/C(=C(/O)c3ccc4c(c3)CC(C)O4)C(=O)C(=O)N2CCCn2ccnc2)cc1OCC (centres undefined)	.	4	.	0.6	.
Cc1ccc(C(=O)NC(NC(=O)c2ccc(C)cc2)c2cccc([N+](=O)[O-])c2)cc1	-41	8	0%	2.1	-3
Cc1ccc(C2c3c(-c4ccccc4O)n[nH]c3C(=O)N2Cc2ccncc2)cc1 (centres undefined)	-29	2	-11%	-2.3	-10
O=C(CSC1=NS(=O)(=O)c2ccccc21)Nc1ccccc1	-52	-2	4%	-2.2	2	Arbovirus anti repeat=18
Cc1ccc(S(=O)(=O)Nc2ccc(C(=O)N3CCCC3)cc2)cc1	.	8	.	1.2	.
O=C(Nc1cccc(F)c1)Nc1cnccn1	.	-8	.	-0.8	.
CCn1c(SCC(=O)NCc2ccco2)nc2cccnc21	4	-6	-6%	2.0	1
Cc1onc(-c2c(Cl)cccc2Cl)c1COC(=O)c1ccc([N+](=O)[O-])cc1	.	4	-9%	-1.7	.
Cc1cc(C)nc(/N=C2\NC(=O)CC(C(=O)O)N2c2cccc(Cl)c2)n1 (centres undefined)	.	-4	-1%	-1.7	1
Cc1cccc(CN2CCN(C(=S)Nc3ccccc3)CC2)c1	.	-1	-1%	-0.5	4
Cc1ccccc1Nc1c(C)c(C)nc2ncnn12	.	5	.	2.1	.
CCOc1ccc(N/C(N)=N/c2nc(CSc3nnc(C)s3)cc(=O)[nH]2)cc1	.	-1	17%	-1.5	.

This is a subset; the hit share may differ from the screen's.
